RVFV N-RNA FP: inhibitors of RVFV nucleoprotein–RNA binding, primary screen, biochemical, fluorescence polarization. RVFV N-RNA binding; stronger effect = lower value. AID 651828, 2012. P21700. 20,000 tested, 0.1% active. % bound, % (test concentration not listed);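 active = between 0 and 58% in either replicate with normal brightness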;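 note: 100 nL library stock added to about 12 µL; 100% = protein and probe without compound and 0% = probe alone; numbers are from one replicate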
Target sequence (P21700 whole entry, looked up): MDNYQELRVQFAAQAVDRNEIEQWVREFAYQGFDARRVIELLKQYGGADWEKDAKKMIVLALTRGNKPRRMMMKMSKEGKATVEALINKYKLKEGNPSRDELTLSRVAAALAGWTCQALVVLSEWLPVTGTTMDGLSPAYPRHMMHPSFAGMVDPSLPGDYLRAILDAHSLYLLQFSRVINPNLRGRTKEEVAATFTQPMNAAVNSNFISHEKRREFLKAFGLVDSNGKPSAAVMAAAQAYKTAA
Numbers without * were called inactive; & = joins results of further samples.

CCCCN(CC)C(=O)c1cc(OC)c(OC)c(OC)c1 was read as RVFV N-RNA FP 90.8.
CCCCN(CC)C(=O)C1c2ccccc2Oc2ccccc21 was read as RVFV N-RNA FP 88.6.
Screening Cc1ccccc1NC(=O)N1CCCC(C(N)=O)C1 (configuration not stated) returned RVFV N-RNA FP 85.5.
For CC(C)(C)C(O)/C=C/c1ccc2c(c1)OCO2 (configuration not stated) the results were RVFV N-RNA FP 95.8.
For CC1=CC(=C2C(=O)NC(=S)NC2=O)C=C(C)N1Cc1ccco1 the results were RVFV N-RNA FP 95.0.
CSc1cccc(NC(=O)CSc2ncn[nH]2)c1 was read as RVFV N-RNA FP 106.6.
Screening C=CCN(CC=C)CCOc1ccc(Cl)cc1 returned RVFV N-RNA FP 101.0.
NC(Cc1cccc(-c2ccccc2CP(=O)(O)O)c1)C(=O)O (configuration not stated) was read as RVFV N-RNA FP 93.0.
COc1ccc2cc(Br)ccc2c1CC(=O)NCc1ccco1 was read as RVFV N-RNA FP 91.2.
Screening N#C/C(=C\N1CCCC1)S(=O)(=O)c1ccc(Cl)cc1 returned RVFV N-RNA FP 97.5.
`CO[C@H]1CC(O[C@@H]2/C(C)=C/C[C@@H]3C[C@@H](C[C@]4(C=C[C@H](C)[C@@H](C5CCCCC5)O4)O3)OC(=O)[C@@H]3C=C(C)[C@@H](O)[C@H]4OC/C(=C\C=C\[C@@H]2C)[C@]43O)O[C@@H](C)C1O[C@H]1C[C@H](OC)[C@@H](O)[C@H](C)O1` (some centres not stated) gave RVFV N-RNA FP 103.3.
Screening NC(=O)CN1CC(O)CC1=O (configuration not stated) returned RVFV N-RNA FP 97.3.
Screening CCOC(=O)C1=C(Nc2ccc(Cl)cc2)OCC1=O returned RVFV N-RNA FP 94.2.
For O=C(Nc1nccs1)c1cccc(NS(=O)(=O)c2ccccc2)c1 the results were RVFV N-RNA FP 100.7.
`COc1ccc(C(=O)NC(Nc2cc(C)on2)(C(F)(F)F)C(F)(F)F)cc1` gave RVFV N-RNA FP 92.6.
O=C(CSc1n[nH]c(Cc2ccccc2)n1)NC1CCCCC1 was read as RVFV N-RNA FP 97.2.
For Cc1cccc(NC(=S)NC2CCCC2)c1 the results were RVFV N-RNA FP 95.3.
Screening CC(C)(C)NC(=O)COc1ccc(S(=O)(=O)N2CCOCC2)cc1 returned RVFV N-RNA FP 99.2.
`COCCNC(=O)NC1CCCCC1` gave RVFV N-RNA FP 89.5.
Screening Cc1sc2ncn(C)c(=O)c2c1-c1ccccc1 returned RVFV N-RNA FP 104.8.
CCCCN(C)S(=O)(=O)c1ccc(C(=O)Nc2cccc3c2C(=O)NC3=O)cc1 was read as RVFV N-RNA FP 96.1.
`CCN(C(=O)CSc1nc(C)cc(C(F)(F)F)n1)c1ccccc1` gave RVFV N-RNA FP 94.0.
For CCn1c(O)c(C=Nc2ccc(S(N)(=O)=O)cc2)c(=O)[nH]c1=S the results were RVFV N-RNA FP 111.8.
CCOC(=O)c1ccc(NC(=O)c2ccc(-c3ccc(F)cc3)o2)cc1 was read as RVFV N-RNA FP 101.1.
Screening Cc1cn(C2C=CC(CO)O2)c(=O)[nH]c1=O (configuration not stated) returned RVFV N-RNA FP 97.9.
NC(=O)CSc1nc2[nH]ncc2c(=O)[nH]1 was read as RVFV N-RNA FP 95.8.
`CC(C)N(C(=O)Cn1c(=O)n(-c2ccc(F)cc2)c(=O)c2oc3ccccc3c21)C(C)C` gave RVFV N-RNA FP 97.5.
Screening Cc1ccc2cc3c(nc2c1)N(c1ccc(C(=O)O)cc1)CC3 returned RVFV N-RNA FP 96.7.
Screening CCSc1cnn(-c2ccccc2)c(=O)c1Cl returned RVFV N-RNA FP 93.0.
CCc1cccc(NC(=O)/C=C/c2ccco2)c1 was read as RVFV N-RNA FP 94.9.
CCOC(=O)C1CCCN(S(C)(=O)=O)C1 (configuration not stated) was read as RVFV N-RNA FP 102.8.
Screening CC(=O)O/N=C/c1c(Nc2ccc(C)cc2)nc2c(C)cccn2c1=O returned RVFV N-RNA FP 99.0.
Screening C=CCn1c(=NC(=O)CC)sc2cc(S(N)(=O)=O)ccc21 returned RVFV N-RNA FP 95.4.
Screening CC1CCN(S(=O)(=O)c2ccc(NC(=O)c3ccc4c(c3)OCCO4)cc2)CC1 returned RVFV N-RNA FP 96.0.
Screening COc1cccc(/C=C2\SC(=S)C(N)C2=O)c1OC (configuration not stated) returned RVFV N-RNA FP 93.6.
For Cc1ccc(NC(=O)CC(C(=O)O)N(C)C)cc1 (configuration not stated) the results were RVFV N-RNA FP 91.6.
N/C(=N\c1nc2ccccc2s1)NC(=O)c1ccccc1N was read as RVFV N-RNA FP 99.3.
COc1ccc(-c2n[nH]c(=O)[nH]2)cc1 was read as RVFV N-RNA FP 109.9.
CSc1ccc(S(=O)(=O)N2CCOCC2)cc1 was read as RVFV N-RNA FP 96.8.
O=C(Cc1ccccc1)OCn1nnc2ccccc2c1=O was read as RVFV N-RNA FP 90.3.
N/C(=N\O)c1ccccn1 was read as RVFV N-RNA FP 92.7.
CCOC(=O)N1CCN(C(=O)C2CC(=O)N(c3ccccc3)C2)CC1 (configuration not stated) was read as RVFV N-RNA FP 99.3.
C=CCn1c(SCC(=O)N2CCOCC2)nnc1-c1cc(Br)ccc1O was read as RVFV N-RNA FP 97.0.
For Cc1nn(-c2ccccc2)nc1CNC(=O)COc1ccccc1 the results were RVFV N-RNA FP 96.0.
For Cc1ccccc1N1C(=O)c2cc(S(N)(=O)=O)c(Cl)cc2NC1C (configuration not stated) the results were RVFV N-RNA FP 98.2.
Screening CC1CC(=O)C2=C(C1)Nc1ccccc1NC2c1ccccc1 (configuration not stated) returned RVFV N-RNA FP 97.6.
For COc1ccc(OC)c(NS(=O)(=O)c2ccc(NC(=O)c3ccco3)cc2)c1 the results were RVFV N-RNA FP 92.5.
CCOC(=O)C1CN(S(=O)(=O)c2ccccc2)CCN1S(=O)(=O)c1ccccc1 (configuration not stated) was read as RVFV N-RNA FP 96.2.
Screening Nc1ccc(O)c(C(=O)O)c1 returned RVFV N-RNA FP 88.8&100.3.
CCN(CC)c1ccc(NC(=O)c2ccc(OC)c(OC)c2)cc1 was read as RVFV N-RNA FP 101.2.
`N#Cc1cc2nc(O)c(O)nc2cc1[N+](=O)[O-]` gave RVFV N-RNA FP 95.9.
CN(Cc1cnc2nc(N)nc(N)c2n1)c1ccc(C(=O)N[C@@H](CCC(=O)O)C(=O)O)cc1 was read as RVFV N-RNA FP 100.6&101.4.
`COc1ccc(C(=O)c2ccc(F)cc2)cc1` gave RVFV N-RNA FP 96.6.
For CN1N=C2c3ccccc3CCC2C1c1cccs1 (configuration not stated) the results were RVFV N-RNA FP 92.3.
For O=C(c1c(F)c(F)c(F)c(F)c1F)N(CCO)Cc1ccccc1 the results were RVFV N-RNA FP 97.6.
`O=C(NCC(=O)c1cccs1)c1ccc(CSc2ccccc2)o1` gave RVFV N-RNA FP 91.7.
CN(Cc1ccccc1)Cc1c(F)cccc1F was read as RVFV N-RNA FP 95.2.
For Cc1ccc(C(=O)N(C)CCC#N)cc1C the results were RVFV N-RNA FP 106.0.
CNc1c(C(=O)c2ccc(F)cc2)sc(N)c1C#N was read as RVFV N-RNA FP 95.4.
`S=C(NCC1CCCCC1)Nc1cccnc1` gave RVFV N-RNA FP 99.0.

Six records drawn at random from those above:
`N#Cc1cc2nc(O)c(O)nc2cc1[N+](=O)[O-]` gave RVFV N-RNA FP 95.9.
For O=C(c1c(F)c(F)c(F)c(F)c1F)N(CCO)Cc1ccccc1 the results were RVFV N-RNA FP 97.6.
CCOC(=O)C1CN(S(=O)(=O)c2ccccc2)CCN1S(=O)(=O)c1ccccc1 (configuration not stated) was read as RVFV N-RNA FP 96.2.
CN(Cc1cnc2nc(N)nc(N)c2n1)c1ccc(C(=O)N[C@@H](CCC(=O)O)C(=O)O)cc1 was read as RVFV N-RNA FP 100.6&101.4.
N/C(=N\O)c1ccccn1 was read as RVFV N-RNA FP 92.7.
For COc1ccc(OC)c(NS(=O)(=O)c2ccc(NC(=O)c3ccco3)cc2)c1 the results were RVFV N-RNA FP 92.5.

Next part.
`OC(CCN1CCCCC1)(c1ccccc1)C1CC2C=CC1C2` (configuration not stated) gave RVFV N-RNA FP 95.9.
Screening CCCS(=O)(=O)c1nc2ccccc2n1Cc1cc(C)ccc1C returned RVFV N-RNA FP 91.9.
For CCCCN1CCC(O)(c2ccccc2)C(C(=O)c2ccccc2)C1 (configuration not stated) the results were RVFV N-RNA FP 93.8.
Screening CC(=O)Nc1c2c(nn1-c1ccc(C)cc1)CSC2 returned RVFV N-RNA FP 97.9.
CCCCN(CC)S(=O)(=O)c1ccc(C(=O)N=c2sc(C(=O)OCC)c(C)n2C)cc1 was read as RVFV N-RNA FP 95.4.
Cc1ccc(NC(=O)COc2ccc(Cl)cc2)cc1N(C)C was read as RVFV N-RNA FP 95.6.
For CC(Cn1cnc2ccccc21)C(=O)N/N=C/c1ccccc1 (configuration not stated) the results were RVFV N-RNA FP 98.5.
`O=C(O)C(Sc1nncc(-c2ccccc2)n1)c1ccccc1` (configuration not stated) gave RVFV N-RNA FP 90.6.
For Cc1cccc(N2C(=O)CNC2=S)c1 the results were RVFV N-RNA FP 94.5.
O=P(CO)(c1ccc(Cl)cc1)c1ccc(Cl)cc1 was read as RVFV N-RNA FP 95.8.
`CC(C)c1csc2nc3n(c(=O)c12)CCCCC3` gave RVFV N-RNA FP 98.0.
`C[C@]12CC(=CO)C(=O)C[C@@H]1CC[C@@H]1[C@@H]2CC[C@@]2(C)[C@H]1CC[C@]2(C)O` gave RVFV N-RNA FP 94.2.
CC[C@@]1(O)C(=O)OCc2c1cc1n(c2=O)Cc2cc3c(CN(C)C)c(O)ccc3nc2-1 was read as RVFV N-RNA FP 43.7*.
For COc1ccc(C(=O)NCCc2nnc3ccc(SCC(=O)Nc4cc(C)on4)nn23)cc1 the results were RVFV N-RNA FP 93.8.
For CCOC(=O)N1CCN(/[N+]([O-])=N/Oc2ccc([N+](=O)[O-])cc2[N+](=O)[O-])CC1 the results were RVFV N-RNA FP 95.0.
`O=C(c1ccc(Br)o1)N(c1ccc(Br)cc1)C1C=CS(=O)(=O)C1` (configuration not stated) gave RVFV N-RNA FP 98.5.
Screening CCOC(=O)c1c(-c2ccc(OC)cc2)oc2ccc(OC(=O)N3CCOCC3)cc12 returned RVFV N-RNA FP 80.9.
`O=C1CC2(CC(=O)Oc3cc(O)ccc32)c2ccc(O)cc2O1` gave RVFV N-RNA FP 94.1.
`Cc1ccc(NC(=O)CSc2nccn2-c2ccccc2)cc1` gave RVFV N-RNA FP 93.1.
`O=C(NCCN1CCNC1=O)c1cnn(-c2ccc(Cl)cc2)c1C(F)(F)F` gave RVFV N-RNA FP 99.1.

Arranged by count of non-hydrogen atoms (highest first): part of the list above
For CCOC(=O)N1CCN(/[N+]([O-])=N/Oc2ccc([N+](=O)[O-])cc2[N+](=O)[O-])CC1 the results were RVFV N-RNA FP 95.0.
For CCCCN1CCC(O)(c2ccccc2)C(C(=O)c2ccccc2)C1 (configuration not stated) the results were RVFV N-RNA FP 93.8.
`O=C1CC2(CC(=O)Oc3cc(O)ccc32)c2ccc(O)cc2O1` gave RVFV N-RNA FP 94.1.

Next part
For O=C1CCCC2=C1C(c1ccccc1)N=C(Nc1nc3ccccc3s1)N2 (configuration not stated) the results were RVFV N-RNA FP 99.7.
`Cc1ccc(S(=O)(=O)Nc2ccccc2C(=O)NCc2ccco2)cc1` gave RVFV N-RNA FP 97.9.
Screening CCCCP(=O)(O)c1ccccc1 returned RVFV N-RNA FP 87.4.
N#CCSc1nc2sc3c(c2c(=O)[nH]1)CCCC3 was read as RVFV N-RNA FP 93.2.
For C#CCOC(=O)C1C2C=CC(C2)C1C(=O)O (configuration not stated) the results were RVFV N-RNA FP 100.6.
CCCC(C)C(=O)N1CCN(c2ccc(F)cc2)CC1 (configuration not stated) was read as RVFV N-RNA FP 93.1.
O=C(CC1C(=O)NC2CCCCC2N1C(=O)Nc1cccc(Cl)c1)Nc1ccc2c(c1)OCO2 (configuration not stated) was read as RVFV N-RNA FP 94.2.
O=C(O)/C=C/C(=O)NCc1cccc(Cl)c1 was read as RVFV N-RNA FP 96.6.
For CCOC(=O)c1cc(C#N)c(Sc2n[nH]c(C(F)(F)F)n2)nc1C(F)(F)F the results were RVFV N-RNA FP 98.4.
`CCc1ccccc1NC(=O)C(CC)CC` gave RVFV N-RNA FP 105.1.
Screening Cc1ccc2nc(SC3CCCC3)nc(=O)n2c1 returned RVFV N-RNA FP 99.6.
COc1cccc(N2CC(C(=O)Nc3c(C(N)=O)oc4ccccc34)CC2=O)c1 (configuration not stated) was read as RVFV N-RNA FP 103.3.
For Cc1cc(C)c(C=C(C#N)C#N)[nH]1 the results were RVFV N-RNA FP 91.4.
For N#CC(C#N)=Cc1ccc(-c2cccc(C(=O)O)c2)o1 the results were RVFV N-RNA FP 97.8.
Cc1cccc(S(=O)(=O)NCc2cn3cccc(C)c3n2)c1 was read as RVFV N-RNA FP 98.7.
Screening FC(F)(F)c1cccc(Cn2c(-c3cscn3)nc3ccccc32)c1 returned RVFV N-RNA FP 100.2.
Screening S=c1[nH]ncn1/N=C/c1ccccc1 returned RVFV N-RNA FP 108.0.
`CCOC(=O)C1CCN(C(=O)c2cccc(C(=O)N3CCC(C(=O)OCC)CC3)c2)CC1` gave RVFV N-RNA FP 95.5.
Screening CSc1nc(N)n(-c2ncccc2C(F)(F)F)n1 returned RVFV N-RNA FP 97.5.
COc1ccccc1N1CCN(CCCCN2C(=O)c3ccccc3C2=O)CC1 was read as RVFV N-RNA FP 93.3.
Screening CCOC(=O)C1=C(C)OC(N)=C(C#N)C1C1CCCCC1 (configuration not stated) returned RVFV N-RNA FP 94.2.
CS(=O)(=O)N1CCN(c2ccc(NC(=O)CSc3nnc(Cc4ccccc4)o3)cc2)CC1 was read as RVFV N-RNA FP 96.7.
O=C(CC1S/C(=N/N=C2\CSC(=O)N2)NC1=O)Nc1ccccc1 (configuration not stated) was read as RVFV N-RNA FP 94.2.
Screening O=S1(=O)CCN(Cc2ccc(F)cc2F)CC1 returned RVFV N-RNA FP 99.0.
`c1ccc(SCCc2ccccn2)cc1` gave RVFV N-RNA FP 98.0.
For N/C(=N\OC(=O)CCn1c(=O)oc2ccccc21)c1ccc(Cl)cc1 the results were RVFV N-RNA FP 94.9.

Screens (PubChem)

Not all compounds are listed; count on the stated rates, not on these rows.
